# 2A Renilla – FMDV 2A StopGo reporter, Renilla signal. Potency, µM (highest dose often 57.5 µM), for inactives: top-dose signal change, negative = less light. HEK cells with a luciferase reporter of 2A StopGo recoding. actives 0.32% (n = 120,000); active means well fitted falling curve with a large enough effect; inconclusive means small, poorly fitted or top-dose-only effect; inactive means no such curve, though single readings can be large or run the other way; further: nearly all actives have a fitted effect of over 55% in size; overnight with compound
# StopGo FLuc – lowers the firefly signal of an FMDV 2A StopGo reporter; Potency, µM (series often up to 57.5 µM), for the others: at the top dose signal change, negative = less light; actives 0.23% (n = 120,000); HEK cells with a luciferase reporter of 2A StopGo recoding; active = well fitted falling curve with a large enough effect; inconclusive = small, poorly fitted or top-dose-only effect; inactive = no such curve, though single readings can be large or run the other way; further: nearly all actives have a fitted effect of over 60% in size; overnight with compound
# * marks the source's active call; other numbers are inactive results; ? = inconclusive; & = joins results of further samples; [ ] = dose if it differs, or a comment. On the % scale 0 is the no-effect control and ±100 the full control effect; potency means the concentration at half of the fitted maximal effect. Some of the compounds tested; count on the stated rates, not on these rows.
compound,StopGo FLuc,2A Renilla
Cc1cc(NC(=O)c2cccs2)cc(-c2nc3cc(Cl)ccc3o2)c1O,-2%,-9%
COc1ccc(NC(=O)Cc2cnc(-n3cccc3)s2)cc1OC,-5%,-2%
Cc1ccc(NC(=O)Cc2nc(-c3ccccc3)oc2C)nc1,208%[activator],35%[activator]
CC1CC(OC(=O)c2ccccc2O)CC(C)(C)C1 (configuration not stated),6%[11.5 µM],-2%
Cc1ccc(-n2nnc(C(=O)Nc3nccs3)c2C)cc1C,191%[activator],-2%
Cc1cc(C)c2c(=O)cc(C(=O)Nc3ccccc3C(F)(F)F)oc2c1,-6%&-12%,-5%&-1%
O=c1ccc2cc(S(=O)(=O)NC34CC5CC(CC(C5)C3)C4)ccc2o1,21%,239%[activator]
CCOC(=O)N/N=C/c1cc(Cl)ccc1OCCCOc1ccc(Cl)cc1,18%,6%
Fc1ccc(F)c(CNCc2cccnc2-n2cccn2)c1,12%,2%
COc1ccc(OC)c(NC(=O)Cn2ccc3ccccc3c2=O)c1,-4%,7%
COc1ccc(CCNC(=O)CSc2cn(CCNC(=O)c3c(F)cccc3F)c3ccccc23)cc1OC,-7%,21%
Cc1cc(NC(=O)COC(=O)c2cc3ccccc3o2)no1,-7%,-11%
O=C1C(=O)N(C2CCN(C(=O)c3cccc(Cl)c3)CC2)CCN1Cc1ccc(F)cc1,-18%,-14%
CCc1ccccc1Nc1nn2c(=O)c3ccc(C(=O)NCCC4=CCCCC4)cc3nc2s1,4%,-4%
COC(=O)C(C)Sc1nc2c(cnn2-c2ccc(F)cc2)c(=O)[nH]1 (configuration not stated),-11%,2%
O=C(CN(Cc1ccccc1)Cc1ccccc1)OCC(=O)c1ccccc1,-9%,-4%[1.06 µM]
Cc1ccc(NC(=O)c2cc3nc(-c4ccc5c(c4)OCO5)cc(C(F)(F)F)n3n2)cc1Cl,-13%,-8%
CCN(c1ccccc1)S(=O)(=O)c1ccc(NC(=O)c2cc(=O)c3ccc(C)c(C)c3o2)cc1,-11%,-4%
CCOc1ccc2c(=O)c(-c3ccccc3OC)c(C)oc2c1,22%,?
Cc1cc(C)c(C(=O)c2ccccc2)cc1C(=O)c1ccccc1,5%,13%
COc1ccc(Cn2c(=O)n(Cc3ccco3)c(=O)c3oc4ccccc4c32)cc1,-12%&-20%,-8%&-13%
CCc1cccc(C)c1NC(=O)CSc1nc(C)c(C)o1,-8%,-6%
Cc1ncc(-c2ccc(C)c(S(=O)(=O)Nc3ccc(C)c(C)c3)c2)o1,0%,134%[activator]
Cc1ccc(CSC2=Nc3ccccc3C3=NC(CCC(=O)NCc4cccs4)C(=O)N23)cc1 (configuration not stated),120%[activator],13%
CC1=C(C(=O)Nc2ccc(C)cc2C)C2(CCCCC2)OC1=O,6%,-2%
COCCCNC(=O)Cc1c(C)c2c(OC)cc(C)cc2oc1=O,0%,39%[activator]
O=C(O)CSc1c2c(nc3cc(C(=O)Nc4ccc(F)c(Cl)c4)ccc13)CCC2,-5%,-18%
Cc1cc(C)cc(NC(=O)CSc2nccn2-c2ccccc2)c1,7%,-6%
CC(OC(=O)c1nn(C)c(=O)c2ccccc12)C(=O)Nc1cccc(C(F)(F)F)c1 (configuration not stated),-4%,-17%
O=C(Oc1ccc(Oc2ccccc2)cc1)C1CCCCC1,20%,4%
Cc1cccc(N(C)S(=O)(=O)c2ccc(-c3coc(C)n3)cc2)c1,9%,25%
Cc1cc(C(=O)COC(=O)c2cccs2)c(C)n1Cc1ccco1,-15%,18%
COC(=O)N(C)CC(=O)NCc1ccccc1,10%,9%
Cc1ccc(NC(=O)CN2c3cccc4cccc(c34)S2(=O)=O)c(S(=O)(=O)N2CCCCC2)c1,6%,47%[activator]
Cn1cc(-c2cc3n(n2)CCC(=O)N3CCCC(=O)Nc2ccccc2Cl)c2ccccc21,-19%,-21%
Cc1cc(Nc2ccc(C(=O)O)c(O)c2)n2ncnc2n1,-12%,-9%
COc1ccc(N2CCN(C(CNS(=O)(=O)c3c(C)cc(C)cc3C)c3ccco3)CC2)cc1 (configuration not stated),-21%,5%
Cc1nc2cc(NC(C)C(=O)Nc3ccccc3Cl)ccc2o1 (configuration not stated),11%,7%
CCCn1c(=O)n(CC(=O)NCC(=O)Nc2cccc(C)c2C)c2ccccc21,-7%,8%
CN(Cc1cccs1)C(=O)Cc1c[nH]c2ccccc12,132%[activator],150%[activator]
COC(=O)Cn1c(Nc2ccccc2)nc2c1c(=O)n(C)c(=O)n2C,-10%,0%
O=S(=O)(NCc1nnnn1-c1ccccc1)c1ccccc1,28%,138%[activator]
CC(=O)c1cccc(NC(=O)Nc2cc3c(cc2N2CCCC2)n(C)c(=O)n3C)c1,0%,18%
C/C(=C\c1ccc2c(c1)OCO2)[N+](=O)[O-],?,?
Cc1ccccc1CCNC(=O)c1ccc2c(c1)nc1n2CCCCC1,-58%,69%[activator]
O=C(CCCCn1c(=O)c2ccccc2n(Cc2ccccc2F)c1=O)NCc1ccc2c(c1)OCO2,-10%,0%
CN1CCN(CCCNC(=O)c2ccc3nc(Cc4ccccc4)oc3c2)CC1,-11%,-12%
Clc1ccccc1-c1nc(-c2ccc(Br)cc2)no1,47%[activator],3%
C/C(=N\NC(=O)C(c1ccccc1)c1ccccc1)c1cccs1,0%,0%
CCc1cccc(C)c1NC(=O)c1nc2ccccc2nc1N(CC)CC,5%,-3%
COc1cc(CSc2c(CC(C)C)cnc3c2c(=O)n(C)c(=O)n3C)cc(OC)c1,-2%,23%
Cc1nc(-c2ccccc2)sc1C(=O)Nc1ccc(C(C)C)cc1,178%[activator],24%
CCOC(=O)c1c(C)[nH]c(C)c1S(=O)(=O)N(C)CC(=O)N1CCN(c2ccc(Cl)cc2)CC1,-14%,92%[activator]
CCc1ccc(-c2nc(CN3CCCC(C(=O)NCc4ccccc4Cl)C3)c(C)o2)cc1 (configuration not stated),0%,-6%
CCn1nc(C(=O)Nc2ccc(SC(F)F)cc2)c2ccccc2c1=O,63%[activator],6%
COc1cc(C#N)ccc1OCc1ccccc1,264%[activator],23%
Cc1cccc(NC(=O)CN2C(=O)C(c3ccccc3)=NC23CCC(C)CC3)c1 (configuration not stated),1%,-1%
CN1CCN(C(CNC(=O)c2cccc(F)c2)c2ccc3c(c2)OCO3)CC1 (configuration not stated),19%,15%
COc1ccc(Cl)cc1NC(=O)Cn1c(SCc2cccc(C)c2)nc2ccncc21,56%[activator],-9%
COc1cc(C(=O)N(Cc2nc3ccccc3c(=O)[nH]2)C(C)C)cc(Cl)c1OCC(N)=O,4%,7%

# (continued)
compound,StopGo FLuc,2A Renilla
COc1ccc(CNC(=O)CN(c2cc(C(F)(F)F)ccc2Cl)S(C)(=O)=O)cc1,-4%,102%[activator]
CN(Cc1ccc(Br)cc1)c1ccc(S(N)(=O)=O)cn1,?,?
N#Cc1ccccc1NC1=CC(=O)CC(c2ccccc2)C1 (configuration not stated),0%,56%[activator]
Cc1cccc(-c2noc(-c3ccccc3OCC(=O)Nc3ccccc3[N+](=O)[O-])n2)c1,6%,-9%
CCOc1cccc(C(=O)Nc2nnc(S(=O)(=O)N(C)c3ccc(C)cc3)s2)c1,5%,18%
O=C(CCc1ncc(-c2ccc(F)cc2F)o1)N1CCN(S(=O)(=O)c2cc(F)ccc2F)CC1,-22%,?
COc1ncccc1CNC(=O)c1nccnc1N,12%,-12%[1.06 µM]
CCCNC(=O)c1ccc(NC(=O)CCc2ccccc2)cc1,4%,-4%
CCS(=O)(=O)N1CCc2cc(C(=O)N3CCN(c4ccc(OC)cc4)CC3)ccc21,-22%,24%
CC(C)=CC(=O)Nc1ccc2c(c1)-c1ccccc1C2,226%[activator],0%
Cc1c(C(=O)c2ccc[nH]2)oc2ccc(Cl)cc12,12%,1%[1.06 µM]
CCC1Oc2ccccc2N(CC(=O)NCc2cc(OC)ccc2OC)C1=O (configuration not stated),-5%,-1%
O=C(CN1CCN(c2nccs2)CC1)NCc1cccc(Cl)c1,3%,-1%
Cc1cccc(N2CCN(C(=O)c3cccc(-n4c(C)nc5cccnc54)c3)CC2C)c1 (configuration not stated),?,?
CCOC(=O)/C(C#N)=C(\C=C\c1ccccc1OC(F)F)c1ccccc1,-11%,-10%
COc1cc(OC)c(NC(=O)c2cc3c(s2)-c2ccc(Cl)cc2SC3)cc1Cl,61%[activator],-7%
CCCCNc1nc(-c2ccc(NC(C)=O)cc2F)cs1,144%[activator],21%
Cc1cccc(OCCOC(=O)c2cc(C)nc3ccccc23)c1,24%,19%
CC(C)(C)NC(=O)NC(=O)COc1ccc2ccc(=O)oc2c1,41%[activator],0%
COc1cc(C(=O)Nc2ccc3oc(=O)ccc3c2)cc(OC)c1OC,6%,11%
Cc1ccccc1C(=O)N1CCC(N(Cc2csc(-c3cccs3)n2)S(C)(=O)=O)CC1,-17%,34%[activator]
O=C(NC(c1ccccc1)c1cc2ccccc2o1)C1CCOCC1 (configuration not stated),-7%,0%
Cc1cccc(N2CCN(S(=O)(=O)c3ccc(-c4cc(C(F)(F)F)on4)s3)CC2)c1C,-3%,-5%
Cn1ccc2cc(C(=O)N3CCN(Cc4ccccc4)CC3)ccc21,17%,?
COc1ccc(NC(=O)c2oc3ccc(S(=O)(=O)N(C)C4CCCCC4)cc3c2C)cc1,?,?
CCCc1nnc(NC(=O)c2cc(-c3ccccc3)on2)s1,18%,3%
COc1cccc(NC(=O)CSc2nc(-c3ccccc3Cl)nc3c2Cc2c(CO)cnc(C)c2O3)c1,9%,-25%
Cn1c(/C(C#N)=C/c2ccccc2Br)nc2ccccc21,28%,-3%
COCCn1c(C)cc(O)c(C(c2ccc(Cl)cc2)N2CCN(c3ccccc3)CC2)c1=O (configuration not stated),0%,23%
CCOc1ccc(C(=O)N2CCN(c3cc(=O)n4nc(-c5ccccc5C)sc4n3)CC2)cc1,10%,-3%
COCCN1CCC(CNC(C)=O)CC1,12%,-4%
COc1cc(NC(=O)CC2C(=O)N(c3cccc(C)c3)C(=O)N2Cc2ccc(F)cc2)cc(OC)c1 (configuration not stated),-8%,13%
Cc1[nH]c2ccc(F)cc2c1CC(=O)N(C)C1CCCC1,8%,7%
Cc1cccc(NC(=O)CSc2ncc3c(n2)-c2cc(C)ccc2N(C)S3(=O)=O)c1,-4%,1%
CCOCCCNC(=O)c1cc(-c2ccncc2)nc2ccccc12,11%,1%
CS(=O)(=O)c1nc(S(=O)(=O)c2ccc(Cl)cc2)c(NCCc2ccccc2)s1,-16%,52%[activator]
CCCCN(Cc1ccccc1)c1ccc(C(=O)O)cc1NS(=O)(=O)c1ccc(C(C)=O)cc1,0%,41%[activator]
CC(C)C(=O)N1CCN(c2nc3ccccc3o2)CC1,51%[activator],-11%
COc1ccc(CNC(=O)c2ccc3nc(-c4ccc(F)cc4)c(-c4ccc(F)cc4)nc3c2)cc1,-4%,17%
CC1=C(C(=O)Nc2ccccc2)C(c2ccc(F)cc2)n2nc(SCc3cc(C)ccc3C)nc2N1 (configuration not stated),-2%,-4%
COc1cccc(C(=O)N(Cc2ccco2)c2ccccn2)c1,16%,19%
NC(=O)c1ccc(NC(=O)Cn2nc(-c3cccs3)c3ccccc3c2=O)cc1,4%,-3%
Cc1ccc(C)c(-c2ccc(=O)n(Cc3ccc(F)cc3Cl)n2)c1,?,?
CC(C)(C)c1cc(NC(=O)CS(=O)(=O)c2ccccc2)on1,92%[activator],45%[activator]
CCOc1ccccc1Nc1nc(-c2ccccc2)cs1,85%[activator],-4%

# Random excerpt: two entries already listed, in no set order.
compound,StopGo FLuc,2A Renilla
CCOCCCNC(=O)c1cc(-c2ccncc2)nc2ccccc12,11%,1%
COc1ccc(CNC(=O)c2ccc3nc(-c4ccc(F)cc4)c(-c4ccc(F)cc4)nc3c2)cc1,-4%,17%

# Other results follow.
compound,StopGo FLuc,2A Renilla
COc1ccc(NC(=O)COc2ncnc3ccc(Br)cc23)c([N+](=O)[O-])c1,40%[activator],4%
CCOc1ccc(OCC)c(NS(=O)(=O)c2ccc3c(c2)CCN3C(=O)C2CCC2)c1,4%,79%[activator]
CCN(CC)C(=O)CN(C)c1nc2ccccc2o1,4%,3%
O=c1c(Cl)c(N2CCN(c3cccc(C(F)(F)F)c3)CC2)cnn1-c1nc2ccccc2s1,156%[activator],-1%
O=C(O)CN1CCC(CO)CC1,-4%,0%
CCn1nnnc1SCC(=O)c1c(C)c(C)cc(C)c1C,-7%,19%
CCOc1ccc(Nc2nc3cc(Cl)c(Cl)cc3nc2-n2nc(C)cc2C)cc1,-12%,-10%
Cc1ccc(-n2nc(C)c(C(=O)NCCCN3CCN(c4cccc(Cl)c4)CC3)c2-n2cccc2)cc1,-8%,-2%
COc1cc2c(-c3cc4ccccc4o3)cc(=O)oc2cc1C,2%,14%
Cc1ccc(NC(=O)/C(C#N)=C/c2ccc(C(C)C)cc2)cc1C,-11%,58%[activator]
O=C(NCCc1ccccn1)c1ccc2c3c(cccc13)CC2,0%,25%
CC(OC(=O)c1csc(NCc2ccccc2)n1)C(=O)NC1(C#N)CCCCC1 (configuration not stated),-1%,13%
Cc1nc2ccccn2c(=O)c1NC(=O)c1ccc(F)c(F)c1,-6%,-16%

# Screening results: PubChem BioAssay, National Center for Advancing Translational Sciences (NCATS)
